Screening results (PubChem BioAssay)
aSyn rescue: inhibitors of alpha-synuclein toxicity in yeast; Yeast expressing alpha-synuclein, growth rescue, BacTiter-Glo, 24 h; Potency, µM (titrated, usually from 46.1 µM), without a hit: top-dose growth rescue (activation), usual class: activators; 0.14% of 370,000 active; AID 652106; also: potency is read from the fitted curve at half-maximal effect; % of control where 0% means no effect; nearly all actives have a fitted effect of over 65% in size
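Galactose-induced alpha-syn yeast (OD600=0.02, raffinose-pregrown) + pinned cpd, 24 hr, 30 deg C; growth by BacTiter-Glo luminescence. Growth restoration scores as activation.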
DRD3 agonist: activates the human D3 dopamine receptor; max activation, %; D3R DiscoveRx beta-arrestin cells, luminescence, 90 min; P35462; 0.58% of 410,000 active; in the data active = max activation above about 30%; also: 0% is about no effect; mostly tested at two doses, the higher about 12 µM
Target sequence (P35462 whole entry, looked up): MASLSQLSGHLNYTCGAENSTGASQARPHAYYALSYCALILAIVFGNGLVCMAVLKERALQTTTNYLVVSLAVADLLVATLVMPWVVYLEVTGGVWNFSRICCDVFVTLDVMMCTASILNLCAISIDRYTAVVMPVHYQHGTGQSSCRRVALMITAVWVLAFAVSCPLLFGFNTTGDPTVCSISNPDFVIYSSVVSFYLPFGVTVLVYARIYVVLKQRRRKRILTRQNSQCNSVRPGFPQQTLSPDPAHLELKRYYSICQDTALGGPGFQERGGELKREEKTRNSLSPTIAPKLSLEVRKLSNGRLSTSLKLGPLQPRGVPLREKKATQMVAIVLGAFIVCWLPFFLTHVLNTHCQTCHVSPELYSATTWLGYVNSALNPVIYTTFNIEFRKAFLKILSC
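Agonist-mode cell screen: cells plated at 1500/well and incubated overnight at 37 °C, then exposed to library compounds for 90 min at 37 °C. Detection reagent was added for 30–60 min at room temperature, and luminescence was read.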
DRD3 antagonist: D3 dopamine receptor (human) antagonism; P35462; AID 652054; 2.5% of 360,000 active; D3R cells, DiscoveRx beta-arrestin luminescence, antagonist mode; hits give low values; max response, negative = inhibition, %; in the data active = max response below about -50%; inconclusive = no clear call, values can overlap the other calls; also: % is scaled to controls: 0 for no effect and ±100 for the full control effect; mostly tested at two doses, the higher about 12 µM
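Cells expressing the human receptor were seeded at 1500 cells/well, incubated overnight at 37 degrees C in 5% CO2, then exposed to library compounds with dopamine controls for 90 minutes at 37 degrees C before luminescent detection.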
FUS suppressor: suppressors of FUS proteinopathy in yeast | S. cerevisiae FUS-expressing, growth rescue, OD600, 24 h | Potency, µM (series often up to 76.6 µM), without a hit: at the top dose growth rescue (activation), most hits filed as activators | 0.24% of 390,000 active | AID 1347120;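 also: potency is read from the fitted curve at half-maximal effect; plate controls were DMSO vehicle for no effect and reference control for full effect; nearly all actives have a fitted effect of over 55% in size; some results filed as inactive show a strong effect at the top dose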
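Absorbance at 600 nm, taken 24hr after compound addition, measured rescue of FUS-yeast growth at 30C. Induction used 2% galactose with seeding at OD 0.005. Controls: CP55940 from 92uM final, DMSO only.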
Abeta yeast res: restores growth of yeast expressing A-beta42 peptide | AID 1347071 | yeast expressing A-beta42, growth rescue, OD600, 48 h; response scale: 0% DMSO, 100% iron-clioquinol control | Potency, µM (top dose mostly 46.1 µM), for the others: at the top dose growth rescue, hits mostly activators | 0.063% of 410,000 active; also: potency is read from the fitted curve at half-maximal effect; nearly all actives have a fitted effect of over 55% in size
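Growth rescue measured by 600 nm absorbance after 48 h yeast culture at 30 C with compound. Values normalized between DMSO and an equimolar ferric chloride plus clioquinol control.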
TDP-43 yeast inh: TDP-43 toxicity inhibition in yeast; TDP-43 expressing yeast growth rescue, BacTiter-Glo, 24 h; AID 652104; Potency, µM (doses to about 46.1 µM), for inactives: top-dose growth rescue (activation), most hits filed as activators; 1.8% of 410,000 active; also: potency is read from the fitted curve at half-maximal effect; % of control where 0% means no effect; nearly all actives have a fitted effect of over 50% in size
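Luminescence from BacTiter-Glo reports growth of TDP-43-expressing yeast after 24 hr at 30 deg C with compound. Cells were raffinose-pregrown to mid-log, then seeded in galactose medium at OD600=0.02.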
* marks the source's active call; other numbers are inactive results; u = inconclusive; x = not tested or not shown; [ ] = another dose, or the depositor's remark. Unless noted, calls follow the shape of the dose curve; as a rule, active = well fitted curve in the direction sought with a large enough effect; inconclusive = small, poorly fitted or top-dose-only effect, or another doubt; inactive = no such curve, though single readings can be large; an effect the other way counts as inactive or inconclusive. An excerpt. The share of hits here may be higher or lower than overall.

SMILES	aSyn rescue	DRD3 agonist	DRD3 antagonist	FUS suppressor	Abeta yeast res	TDP-43 yeast inh
O=C(NC(=S)Nc1ccc(S(=O)(=O)N2CCCC2)cc1)c1cccs1	-9%	-7	-24	x	-4%	15%
CCOC(=O)N1CCN(C(=O)NC23CC4CC(CC(C4)C2)C3)CC1	9%	2	8	1%	19%	-5%
CC(C)c1ccc(-c2c(NCCc3ccccc3)c(=O)c2=O)cc1	-8%	-9	-17	24%	-21%	-14%
Cc1ccc(OCCn2c(C3CC(=O)N(Cc4ccccc4)C3)nc3ccccc32)cc1 (stereo not drawn)	2%	1	12	11%	4%	6%
C/C(=N\NC(=O)c1cccnc1)c1c(O)cc(C)oc1=O	-7%	6	10	x	-13%	-26%
C/C(=N\O)C(=O)OC1CC(C)CCC1C(C)C (stereo not drawn)	1%	-7	u	29%	-5%	0%
O=C(O)c1cccc(Nc2cc(Cl)c3nonc3c2[N+](=O)[O-])c1	16%	-10	u	-4%	-12%	-14%
CC1=C(C(=O)Nc2ccccc2)C(c2cccs2)n2nnnc2N1 (stereo not drawn)	-6%	4	-6	21%	1%	-4%
COc1ccc(OC)c(-n2c(-c3cc(-c4ccccc4)n[nH]3)n[nH]c2=S)c1	-6%	-5	u	22%	8%	-23%
O=C(Nc1ccc2oc(=O)ccc2c1)c1ccco1	-7%	3	9	26%	16%	0%
CCCCc1c(-c2ccccc2OC)ncn1CCc1ccc(Cl)cc1	-10%	-15	-4	u	-4%	33%
COc1cc(Br)c(CC(=O)NNC(=O)c2ccc(F)cc2)cc1OC	2%	3	21	3%	10%	-9%
Cc1nnc(SCC(=O)NCC2COc3ccccc3O2)s1 (stereo not drawn)	4%	2	0	x	5%	-1%
C=C1SC(Nc2c(C)cc(C)cc2C)=NC12CCCCC2	-18%	-24	-54*	12%	u	-8%[1.82 µM]
Cc1cc(C)c2c(c1)OC(=O)CC2c1ccccc1C (stereo not drawn)	1%	-11	11	-8%	0%	22%
O=C1C=C(CCc2ccccc2)CCC1	1%	-3	-18	-21%	-10%	16%
Cn1c(=O)c2c(nc(N/N=C/c3ccncc3)n2Cc2ccccc2)n(C)c1=O	-5%	-8	-5	-11%	-5%	4%
CC(OC(=O)COc1ccccc1)C(=O)NC1CCCC1 (stereo not drawn)	-7%[1.84 µM]	-13	-4	-4%	-6%	-7%
Cc1cc(C)c2oc(=O)cc(CN3CCN(Cc4ccc5c(c4)OCO5)CC3)c2c1	10%	-9	u	-33%	-9%[9.22 µM]	2%
COc1ccc(NC(=O)c2c(Cl)cnn2C)c(C)c1	-2%	0	-10	-13%	-10%	19%
FC(F)(F)c1cnc(-c2cnc3c(-c4ccc(Cl)cc4)cnn3c2)c(Cl)c1	20%	-5	-10	x	15%	-6%
CC(C)N1CCc2c(sc(NC(=O)c3nc4ccccc4s3)c2C(N)=O)C1	4%	6	-19	-4%	-28%	-9%
CC1=C(C(=O)Nc2ccccc2)C(c2ccncc2)n2nnnc2N1 (stereo not drawn)	-5%	-2	-23	26%	-1%	-5%
O=C(NCc1ccco1)C1(S(=O)(=O)c2ccc(Cl)cc2)CC1	2%	-28	5	-2%	15%	-9%
CCOCCCn1c(=S)[nH]c2cc(C(=O)NCc3ccc(F)cc3)ccc2c1=O	0%	5	-14	-11%	1%	-5%
Cc1cc2occ(CC(=O)NNC(=O)c3ccccc3)c2cc1C	10%	5	11	6%	3%	2%
Cc1cccc(C(=O)NN/C=C/C(=O)c2ccccc2)c1	14%	-6	-19	33%	6%	u
COc1ccc2c(c1)[nH]c1c(=O)n(/N=C/c3ccc(OC)c(CN4CCCC4)c3)cnc12	-2%	-6	-15	38%	-1%	6%
CCC1CCCCN1CCCNC(=O)CCCNC(=O)Cn1cnc2sc3c(c2c1=O)CCCC3 (stereo not drawn)	-2%	-15	0	-11%	0%	-14%
C[C@H](NC(=O)c1nc[nH]c1C(=O)N[C@@H](C)C(=O)OC(C)(C)C)C(=O)OCc1ccccc1	3%	9	-23	40%	10%	17%
CC(C)[C@H](Nc1ccc(S(=O)(=O)N2CCOCC2)cc1[N+](=O)[O-])C(=O)OCC(=O)N(C(C)C)C(C)C	6%	3	7	x	25%	-4%
COc1ccc(C(=O)N(Cc2ccccc2)c2cccc(C)c2)cc1	10%	4	1	15%	0%	17%
CCCNC(=O)C1(S(=O)(=O)c2ccccc2)CC=CC1	-8%	17	4	-8%	0%	15%
CC(C)(C)NC(=O)CSc1nc(O)cc(=O)[nH]1	u	1	1	x	-2%	10%
C/C(CC(=O)NC1CCCCC1)=N\NC(=O)COc1ccc(C)cc1Br	-3%	-4	-22	-11%	-11%	3%
Cc1cc2c(cc1S(=O)(=O)N1CCCC1)n(C)c(=O)c(=O)n2C	-9%	4	-24	-19%	-14%	21%
Cc1ccccc1NC(=O)C1CC(Cl)=CCC1C(=O)O (stereo not drawn)	0%	16	17	5%	5%	u
CC1CCCN(C2(O)C(=O)Nc3ccc(Cl)cc32)C1 (stereo not drawn)	21%	5	4	10%	18%	u
O=C(O)c1ccccc1Nc1cc(Cl)c2nonc2c1[N+](=O)[O-]	7%	-14	-11	5%	-9%	-24%
COC(=O)c1ccc2nc(-c3cccc(Cl)c3)c(Cc3cccc(F)c3)n2c1	u	-3	-23	-1%	-11%	29%

Part of the list above, with each value named:
C/C(CC(=O)NC1CCCCC1)=N\NC(=O)COc1ccc(C)cc1Br
  aSyn rescue: -3%
  DRD3 agonist: -4
  DRD3 antagonist: -22
  FUS suppressor: -11%
  Abeta yeast res: -11%
  TDP-43 yeast inh: 3%

COc1ccc(C(=O)N(Cc2ccccc2)c2cccc(C)c2)cc1
  aSyn rescue: 10%
  DRD3 agonist: 4
  DRD3 antagonist: 1
  FUS suppressor: 15%
  Abeta yeast res: 0%
  TDP-43 yeast inh: 17%

CC(C)(C)NC(=O)CSc1nc(O)cc(=O)[nH]1
  aSyn rescue: u
  DRD3 agonist: 1
  DRD3 antagonist: 1
  FUS suppressor: x
  Abeta yeast res: -2%
  TDP-43 yeast inh: 10%

The results go on:
SMILES	aSyn rescue	DRD3 agonist	DRD3 antagonist	FUS suppressor	Abeta yeast res	TDP-43 yeast inh
Cc1c(NC(=O)c2ccc(N(C)S(C)(=O)=O)cc2)c(=O)n(-c2ccccc2)n1C	2%	5	-5	2%	-14%	5%
CCOc1ccc(N/C=C/C(=O)c2ccc(OC)cc2)cc1	17%	-4	-20	-19%	-4%	12%
COc1ccc(S(=O)(=O)Nc2cccc(C)n2)c2ccccc12	2%	1	40	1%	9%	1%
N#CC(c1ccccc1)(c1ncc(C(F)(F)F)cc1Cl)N1CCOCC1 (stereo not drawn)	4%	2	13	x	25%	21%
COc1ccccc1N(CC(=O)Nc1ccc(S(=O)(=O)N2CCCCC2)cc1)S(C)(=O)=O	-6%	-7	-14	u	-25%	1%
CCOc1ccc(NC(=O)c2cnsn2)cc1	3%	-4	-19	-2%	9%	9%
CCCC(C(=O)Nc1ccc(S(=O)(=O)Nc2nccs2)cc1)c1ccccc1 (stereo not drawn)	2%	10	-9	2%	9%	1%
NC(=O)NN=C1CCC(OCc2ccccc2)CC1CC(=O)O (stereo not drawn)	11%	3	8	-12%	-19%	7%
CCCCNC(=O)c1nc(C2CCN(S(=O)(=O)c3csc(C(=O)O)c3)CC2)oc1-c1ccccc1	0%	3	24	6%	-8%	19%
COC(=O)c1ccc2nc(-c3cccc(Br)c3)c(Cc3ccsc3)n2c1	4%	1	7	25%	-10%	u
COC(=O)c1cn(C(=O)c2ccc(OC)c(OC)c2)c2ccccc12	8%	0	15	32%	-17%	u
O=C(Nc1ccc(N2CCOCC2)cc1N1CCOCC1)c1ncoc1-c1cccc(F)c1	8%	3	5	5%	26%	u
CC(NS(=O)(=O)c1ccc([N+](=O)[O-])cc1)C(=O)NN (stereo not drawn)	6%	2	11	-9%	0%	6%
O=C(Nc1ccc2oc(=O)ccc2c1)c1cccnc1Cl	6%	-6	11	-1%	-6%	-1%
Cc1[nH]n2c(=O)c3c(nc2c1-c1ccccc1)CCCC3	-10%	0	-25	7%	6%	2%
CC1CN(C(=O)COC(=O)Cc2c(F)cccc2Cl)CC(C)O1 (stereo not drawn)	1%	1	2	-25%	15%	6%
C/C(=N\N(Cc1ccccc1)c1ccccc1)c1cccnc1	24%	1	13	-17%	u	0%
CN1c2ccccc2Oc2c(c(=O)n(C)c(=O)n2C)C1c1cccc([N+](=O)[O-])c1 (stereo not drawn)	7%	-1	4	-4%	u	9%
CCOC(=O)N1CCN(C(=O)c2ccc3c(c2)NC(=O)/C(=C/c2ccccc2)S3)CC1	1%	-7	16	5%	3%	-6%
N#Cc1cnn2cc(-c3ncc(C(F)(F)F)cc3Cl)cnc12	-1%	0	6	9%	-3%	-7%
COc1ccccc1-c1n[nH]c(=S)n1Cc1ccccc1	-1%	-6	u	-10%	-8%	-5%
O=C1N(c2ccc(Cl)cc2)C(c2ccc(Cl)cc2)N2CCCN12 (stereo not drawn)	0%	1	3	x	44%	11%
COc1cc(CO)c(Br)cc1OCC(N)=O	-4%	-7	-18	15%	-17%	-29%
CCC(=O)N1CCC1(C)C(=O)Nc1nccs1 (stereo not drawn)	3%	0	-19	-26%	-12%	-12%
CCN1CCN(C(=O)C(=O)c2c(C)[nH]c3ccccc23)CC1	3%	-4	1	-12%	-15%	-3%
Cc1sc(NC(=O)C2CC(Cl)=CCC2C(=O)O)c(C#N)c1C (stereo not drawn)	5%	7	19	-9%	2%	0%
COc1cc(C)c(S(=O)(=O)N2CCCC2)cc1C(C)C	u	16	12	-3%	-8%	-1%
CCc1nc2c(OCc3ccc(C(F)(F)F)cc3)cccn2c1N(C)C(=O)CC(C)C	-14%	1	3	19%	0%	u
COc1cc(OC)c(OC)cc1CNC(=O)c1ccc(COc2ccccc2)cc1	7%	31*	4	21%	5%	-1%
NC(=O)c1ccc(NC(=O)COC(=O)C2(c3ccccc3F)CCCC2)cc1	0%	8	14	-2%	14%	15%
CCCCN1CCCCC1C(=O)Nc1c(C)cc(C)cc1C (stereo not drawn)	3%	0	7	5%	9%	0%

Of the compounds above, three have a furan ring, fused or not:
SMILES	aSyn rescue	DRD3 agonist	DRD3 antagonist	FUS suppressor	Abeta yeast res	TDP-43 yeast inh
O=C(Nc1ccc2oc(=O)ccc2c1)c1ccco1	-7%	3	9	26%	16%	0%
O=C(NCc1ccco1)C1(S(=O)(=O)c2ccc(Cl)cc2)CC1	2%	-28	5	-2%	15%	-9%
Cc1cc2occ(CC(=O)NNC(=O)c3ccccc3)c2cc1C	10%	5	11	6%	3%	2%
